Mtb H37Rv = M. tuberculosis H37Rv growth inhibitors, H37Rv strain (AID 1626) | inhibition, % at 10 µM, or IC50 in µM where a hit was titrated | actives 0.95% (n = 220,000) | M. tuberculosis H37Rv growth inhibition; higher % means a stronger effect;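 active = confirmed in a dose series; inconclusive = inhibition above 80% but not taken into the dose series; inactive = below 80% or under 30% at every dose of the series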;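 note: bacteria incubated seven days before Alamar blue readout; 0% = bacteria only wells and 100% = bacteria with antibiotic wells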
Arbovirus anti = arbovirus infection inhibition; actives 0.37% (n = 200,000); inhibition, % at 10 µM; arbovirus infection cell-based antiviral screen;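 active = inhibition from about 30%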;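 note: bluetongue infection of BSR cells; cell survival read as ATP light after 72 h; 0% = infected wells without compound and 100% = uninfected wells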
RecA splice inh = Mtb RecA intein splicing inhibition; P9WHJ3; cell-free RecA intein splicing, fluorescence; inhibition, %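 (about 9 µM by stock and volumes)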; actives 0.75% (n = 290,000); in the data active = inhibition above about 30%; inconclusive = no clear call, values can overlap the other calls;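 note: 0% = vehicle wells and 100% = reference inhibitor control wells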
Target sequence (P9WHJ3 whole entry, looked up, canonical isoform): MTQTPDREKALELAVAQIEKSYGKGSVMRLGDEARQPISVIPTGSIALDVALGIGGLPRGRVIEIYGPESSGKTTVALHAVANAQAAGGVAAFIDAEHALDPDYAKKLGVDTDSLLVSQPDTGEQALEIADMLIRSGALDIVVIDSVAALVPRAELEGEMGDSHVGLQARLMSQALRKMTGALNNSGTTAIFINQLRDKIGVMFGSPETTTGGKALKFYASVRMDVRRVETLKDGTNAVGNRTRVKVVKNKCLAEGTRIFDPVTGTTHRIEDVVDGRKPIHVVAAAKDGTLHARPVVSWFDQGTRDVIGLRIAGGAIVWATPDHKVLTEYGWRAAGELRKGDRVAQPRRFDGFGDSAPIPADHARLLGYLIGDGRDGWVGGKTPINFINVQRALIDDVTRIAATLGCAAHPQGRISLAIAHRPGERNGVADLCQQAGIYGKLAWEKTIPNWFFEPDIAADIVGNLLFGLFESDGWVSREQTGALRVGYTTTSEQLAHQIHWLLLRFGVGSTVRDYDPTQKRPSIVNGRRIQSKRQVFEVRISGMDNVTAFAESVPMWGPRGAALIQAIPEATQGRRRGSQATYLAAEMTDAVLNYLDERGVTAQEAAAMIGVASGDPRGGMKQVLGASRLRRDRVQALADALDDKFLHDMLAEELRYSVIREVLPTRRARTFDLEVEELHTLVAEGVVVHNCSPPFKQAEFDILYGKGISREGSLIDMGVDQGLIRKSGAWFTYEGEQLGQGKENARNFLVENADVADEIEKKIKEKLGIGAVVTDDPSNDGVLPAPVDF
Mtb bLac sens = beta-lactam sensitization of Mtb H37Rv | M. tuberculosis H37Rv growth with meropenem, percent inhibition; hits of this screen are not shown here | inhibition, % at 25 µM | actives 0.27% (n = 330,000) | AID 434955;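 active = about 74% or more and at least 40 points above the plate without the antibiotic, then above 30% in a dose series; inconclusive = first-round hits that could not be retested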;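 note: growth measured after seven days incubation then overnight dye step; 0% = bacteria only wells and 100% = bacteria with antibiotic; twin plates without the antibiotic show which effects depend on it; some results filed as inactive read as strong as hits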
YopH PTP inh = YopH (Yersinia) phosphatase inhibition; fluorescence Ex485/Em525; inhibition, %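 (about 10 µM by stock and volumes)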; actives 0.16% (n = 140,000);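 active = inhibition of 50% or more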;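 note: controls were vehicle for no effect and minimum signal wells for full effect; inactives centre near -20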
Arbovirus anti repeat = also measured in Arbovirus anti; calls as there; inhibition, %; measured here: 10K subset replicate screen; many hits read low in the repeat;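 first of two repeat runs on a subset; 0% = infected and 100% = uninfected wells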
Active calls of the source: *; ? = inconclusive; nt = not tested or not shown. This is a subset, so the mix of outcomes need not match the whole.

SMILES | Mtb H37Rv | Arbovirus anti | RecA splice inh | Mtb bLac sens | YopH PTP inh | others
COc1ccc(/C=C/C(=O)Nc2ccccc2C)cc1S(=O)(=O)N1CCOCC1 | 10% | nt | -0.3 | -12 | nt
O=C(NC1CCCCC1)c1cccs1 | 2% | -1 | -0.9 | 4 | -31
COc1ccc(-c2nc(CNS(=O)(=O)c3ccc(OC)c(OC)c3)cs2)cc1 | 71% | 1 | -1.5 | 6 | -33
COC(=O)c1ccccc1NC(=O)COc1ccccc1 | 3% | 3 | 3.8 | 68 | -15
O=C(NCCc1ccc(F)cc1)C1CCCCC1 | -9% | -6 | -8.7 | 7 | nt
O=C(O)c1csc(-n2nc(-c3ccccc3)cc2C(F)(F)F)n1 | -5% | 12 | -0.3 | 0 | nt
CCCCN(CC)Cc1ccc(CNC(=O)Nc2ccc(OC)cc2OC)o1 | -8% | -4 | 1.1 | -7 | -15
Cc1ccc(-c2nc3ncccc3o2)cc1NC(=O)CC(C)C | 0% | 4 | -3.1 | -3 | -19
CSc1ccc(C(=O)N2CCC(CCC(=O)NC3CC3)CC2)cc1 | nt | nt | 0.1 | -10 | nt
COc1ccc(C)cc1NC(=O)C(OC(=O)CNC(=O)c1cc(C)cc(C)c1)c1ccccc1 (stereo not given) | -3% | 2 | -0.6 | 0 | -14
CCCCCOC(=O)c1ccccc1C(=O)O | -6% | -2 | -3.2 | ? | -16
Cc1cccc(NC(=O)C(C)N2C(=O)c3ccccc3S2(=O)=O)n1 (stereo not given) | nt | nt | -0.8 | -5 | nt
O=C(N/N=C1\CCc2ccccc21)c1ccccc1O | 10% | -8 | -0.3 | 60 | -18
CC(C)c1ccc(/C=C/C(=O)NCCC2=CCCCC2)cc1 | 17% | -11 | 4.7 | 5 | 1
O=C(COC(=O)Cn1cnc2ccccc2c1=O)Nc1cc(Cl)ccc1[N+](=O)[O-] | -1% | 1 | 0.3 | -1 | -22
COc1ccc(CN2CCNC(=O)C2CC(=O)N(C)Cc2nc(C)cs2)c(OC)c1 (stereo not given) | nt | nt | 0.7 | -9 | nt
CCOc1ccc(N(C(C)C(=O)N2CCOCC2)S(C)(=O)=O)cc1 (stereo not given) | nt | nt | -1.4 | -6 | nt
Cc1c(C(=O)Nc2c(C)n(C)n(-c3ccccc3)c2=O)oc2c(Cl)cccc12 | nt | nt | 4.5 | 6 | nt
CCCN(CCO)Cc1ccc2ccccc2c1 | -5% | 20 | 1.9 | 6 | 2
NCC(O)CN1CCN(Cc2ccccc2)CC1 (stereo not given) | nt | nt | -2.0 | 4 | nt
CCCC(=O)C1C(=O)CC(C)(C)C(c2cc(C)no2)C1=O (stereo not given) | 3% | 10 | -0.4 | -6 | -30 | Arbovirus anti repeat=8
N#CCc1ccc(NC(=O)c2cc(S(=O)(=O)N3CCOCC3)ccc2Cl)cc1 | nt | nt | 0.2 | -3 | nt
Cc1ccc(S(=O)(=O)NCCc2nnc3ccc(SCc4cccnc4)nn23)cc1 | -9% | 9 | 1.0 | 5 | nt
CCCCN1C(=O)NC(NC(=O)C2CC2)(C(F)(F)F)C1=O (stereo not given) | -6% | -1 | nt | -6 | nt
N#Cc1cc(N)ccc1Sc1ccccc1 | 5% | -9 | -3.0 | 31 | -39

The list goes on (four carried over from the part before).
SMILES | Mtb H37Rv | Arbovirus anti | RecA splice inh | Mtb bLac sens | YopH PTP inh | others
N#CCc1ccc(NC(=O)c2cc(S(=O)(=O)N3CCOCC3)ccc2Cl)cc1 | nt | nt | 0.2 | -3 | nt
Cc1ccc(S(=O)(=O)NCCc2nnc3ccc(SCc4cccnc4)nn23)cc1 | -9% | 9 | 1.0 | 5 | nt
CCCCN1C(=O)NC(NC(=O)C2CC2)(C(F)(F)F)C1=O (stereo not given) | -6% | -1 | nt | -6 | nt
N#Cc1cc(N)ccc1Sc1ccccc1 | 5% | -9 | -3.0 | 31 | -39
COc1ccc(CNC(=O)COC(=O)Cc2ccsc2)cc1 | -20% | 7 | 3.2 | 0 | nt
CC(C)Sc1nnc(CNC(=O)C23CC4CC(CC(C4)C2)C3)n1C1CCCCC1 | nt | 2 | 6.9 | 6 | -17
CCOC(=O)c1c(C)[nH]c(C(=O)N/N=C/c2ccc(OC)c(OC)c2)c1C | nt | nt | -0.9 | 0 | nt
COc1ccc(N2CCN(C(=O)CN(c3cccc(Br)c3)S(C)(=O)=O)CC2)cc1 | 0% | 0 | -0.9 | -8 | -44
O=C(Nc1ccc(N2CCOCC2)c(Cl)c1)c1ccc(-n2cnnc2)cc1 | nt | nt | -2.7 | -7 | nt
N#Cc1cc2cc3c(cc2nc1NCCNC(=S)NCCCN1CCOCC1)OCO3 | 11% | 14 | -107 | -5 | nt
Oc1cccc2cc3cccc(O)c3c(O)c12 | -3% | 2 | -2.1 | 3 | nt
CCn1c(CCC(=O)Nc2cc(F)ccc2C)nc2cc(S(=O)(=O)N(C)C)ccc21 | 0% | 5 | 1.3 | -1 | -21 | Arbovirus anti repeat=-4
CCOC(=O)C(=CNc1cc(C)ccc1-n1cccc1)C(=O)OCC | nt | nt | 1.9 | 5 | nt
CCCc1cc(C(F)(F)F)c(C#N)c(=O)[nH]1 | 10% | 10 | -2.6 | -13 | -43
CCCSc1ccccc1C(=O)N1CCN(C(=O)c2ccco2)CC1 | nt | nt | -0.1 | 2 | nt
COc1ccc(C(=O)Nc2ccc(NC(=O)c3cc(OC)c(OC)c(OC)c3)cn2)cc1 | nt | nt | 1.3 | 4 | nt
CCCc1ccc(S(=O)(=O)NCCc2ccncc2)cc1 | -3% | 10 | 1.5 | 4 | -135
COc1cccc(OCCn2cc(C=O)c3ccccc32)c1 | nt | nt | 2.5 | 7 | nt
Cn1cccc1CNC(=S)Nc1ccccc1Cl | 0% | 2 | -0.7 | -3 | nt
Cc1ccccc1OCCC(=O)OCC(=O)NC1CCCCC1 | nt | nt | -0.4 | 3 | nt
Cc1cc(C(=O)Cn2nc(C(=O)O)c3ccccc3c2=O)c(C)n1C1CC1 | 1% | 12 | 3.0 | 1 | nt
Fc1ccc(CSc2nncn2NC/C=C/c2ccccc2)cc1 | 5% | 10 | 3.2 | -3 | -45
COc1ccc(C(O)P(=O)(OCC(C)C)c2ccc(N(C)C)cc2)c(OC)c1 (stereo not given) | nt | nt | 3.4 | 0 | nt
O=C(O)/C=C/C(=O)Nc1ccc(-n2ccc(C(F)(F)F)n2)cc1 | -3% | nt | 4.2 | -4 | nt
O=C(NC1CCCC1)c1ccc(CS(=O)(=O)c2ccc(Cl)cc2)o1 | nt | nt | -7.9 | -4 | nt
Cc1ccc(S(=O)(=O)Nc2ccc3c(c2)CCC3)cc1C | 8% | 6 | 3.7 | 5 | -13
COc1ccc(/C=N/NC(=O)c2cccc(OC(F)(F)C(F)F)c2)cc1O | 0% | -6 | 1.5 | -2 | -17
O=[N+]([O-])c1cc(Cl)cc(/C=N/NC(=S)Nc2ccc(S(=O)(=O)N3CCOCC3)cc2)c1O | -2% | nt | nt | 40 | nt
O=C(Nc1ccc([N+](=O)[O-])c(NC(=O)c2cccnc2)c1)c1cccnc1 | nt | nt | 0.8 | -6 | nt
(list continues)
SMILES | Mtb H37Rv | Arbovirus anti | RecA splice inh | Mtb bLac sens | YopH PTP inh | others
COC(=O)c1ccc(NS(=O)(=O)c2ccc(-c3cc(C)no3)s2)cc1 | nt | nt | 0.9 | -4 | nt
O=C(c1cccs1)N1CCN(c2nc3ccc([N+](=O)[O-])cc3s2)CC1 | nt | nt | -4.5 | 5 | nt
COc1ccc(C(=O)Nc2ncc3c(n2)CC(c2ccco2)CC3=O)cc1 (stereo not given) | -4% | -11 | -1.7 | 6 | -38
CCc1ccc(CN(C)CC(=O)Nc2sccc2C#N)cc1 | 9% | 1 | -3.2 | 1 | -45
O=C(Nc1ccc(Cl)c(Cl)c1)Nc1ccccc1C(=O)O | 0% | 11 | 4.2 | -6 | nt
c1ccc2c3c(c(CN4CCCC4)cc2c1)COC3 | -3% | 0 | -2.4 | 3 | nt
Cc1cc(N2CCCC2)ccc1NC(=O)CN1C(=O)NC(C)(c2ccccc2)C1=O (stereo not given) | nt | nt | -1.7 | -7 | nt
COc1ccc(-c2ccc(S(=O)(=O)NCC3CCCO3)cc2)cc1 (stereo not given) | 10% | 8 | -0.1 | 3 | -20
Nc1nnc(SCC(=O)Nc2ccc(N3CCOCC3)cc2)s1 | nt | nt | -2.0 | -5 | nt
Cc1ccc(-n2ncc3c(=O)n(CC(N)=O)cnc32)cc1C | nt | nt | 2.0 | 8 | nt
CCOC(=O)N1CCN(CC(O)COc2ccccc2C(C)CC)CC1 (stereo not given) | -1% | 4 | 0.7 | 0 | -28
COc1cccc(-n2c(-c3ccoc3)nc3ccccc3c2=O)c1 | -13% | 0 | 3.3 | -2 | 0
CC(C)(C)NC(=O)Nc1ccc(Cn2cc(C(F)(F)F)ccc2=O)cc1 | -5% | 17 | -1.3 | 2 | nt
NC(=O)c1ccccc1NC(=O)/C=C/c1ccccc1 | -7% | 2 | 1.9 | 1 | -27
CC(C)c1ccc2oc(-c3ccc(NC(=O)c4ncn[nH]4)cc3)nc2c1 | 13% | 4 | -0.2 | 62 | -6
COC(=O)c1ccc(CSc2nnc(Nc3ccccc3OC)s2)o1 | 9% | 2 | 5.6 | 8 | -31
CN(C)S(=O)(=O)c1ccc(C(=O)NC(=O)CSc2ccccc2)cc1 | -5% | -12 | -3.1 | -10 | -18
S=c1[nH]nc(-c2cccs2)n1/N=C/c1cn(-c2ccccc2)nc1-c1ccc(Cl)cc1 | 8% | nt | -0.6 | 9 | nt
CC(C)(C)c1ccc(CS(=O)CC(O)CO)cc1 (stereo not given) | -5% | 4 | 3.4 | -3 | -10
COc1ccc(N(C)C(=S)Nc2ccc3nc(C)c(C)nc3c2)cc1 | -2% | -6 | -8.6 | 8 | -11
O=C(Cc1ccccc1F)OCC(=O)N1CCN(C(=O)c2ccco2)CC1 | 0% | 11 | -4.8 | -7 | nt
Nc1ccc2nc(CCCCCCc3nc4ccc(N)cc4[nH]3)[nH]c2c1 | -3% | -2 | 7.4 | -2 | nt
COc1cc(C(=O)OCC(=O)Nc2ccc(SC(F)F)cc2)cc(OC)c1OC | 12% | 13 | 0.7 | -6 | -39
CSc1cccc(NC(=O)Cn2cnc(S(=O)(=O)N3CCCC3)c2)c1 | nt | nt | -1.9 | -3 | nt
CCc1cc(C(c2ccc(OC)c(OC)c2)N2CCOCC2)c(NC(=O)c2ccccc2)s1 (stereo not given) | 20% | 25 | 7.6 | 47 | -27
Next structures
SMILES | Mtb H37Rv | Arbovirus anti | RecA splice inh | Mtb bLac sens | YopH PTP inh | others
Clc1ccc(Cn2ccnc2)cn1 | 0% | 5 | 1.6 | -9 | nt
COc1ccc(/C=N/n2cnc3c([nH]c4ccc(Br)cc43)c2=O)cc1CN1CCOCC1 | -3% | -1 | 0.0 | 4 | -13
O=C(COC(=O)c1cc[n+]([O-])cc1)Nc1ccccc1Cl | -1% | 2 | 2.5 | -6 | nt
Cc1ccc(-n2c(SCC(=O)O)nc3c(sc(=S)n3-c3ccc(C)c(C)c3)c2=O)cc1 | nt | nt | -24 | 8 | nt
CC(=O)c1cccc(Nc2cc(C)nc3ccccc23)c1 | -11% | nt | -6.0 | -7 | nt
CN1C(=O)/C(=C\c2ccncc2)SC1=Nc1ccccc1 | 12% | 13 | 5.6 | -1 | -17
Cn1c(=O)cc(OCC(=O)N2CCN(c3ccccc3F)CC2)c2ccccc21 | -1% | 0 | -1.2 | -7 | nt
COCCNc1nnc(SC(C)C(=O)Nc2c(C)n(C)n(-c3ccccc3)c2=O)s1 (stereo not given) | nt | nt | 0.6 | -11 | nt
Cc1ccc(C(=O)NC(=S)Nc2ccc(NC(=O)c3cccs3)cc2)cc1[N+](=O)[O-] | 4% | -24 | -0.9 | 0 | -13
Cc1ccc(NC(=O)CSCCc2ccccn2)nc1 | 1% | 0 | -1.5 | -1 | -27
Cc1ccccc1NC(=O)CN1C(=O)COc2ccc(S(=O)(=O)N3CCCC3)cc21 | nt | nt | 0.5 | 1 | nt
CCNc1cc(N2CCN(S(=O)(=O)c3ccc4c(c3)CCCC4)CC2)ccc1[N+](=O)[O-] | 1% | 1 | -1.3 | 47 | 17
CCN(CCn1cccn1)C(=O)CC1C(=O)NCCN1Cc1ccc(F)c(F)c1 (stereo not given) | -3% | -3 | 6.0 | -8 | nt
CCOc1cccc(=O)c2c(C)n(C)c(C)c12 | -2% | 6 | -0.6 | -1 | -15
CCC(C)(C)NC(=O)Cn1c(=O)oc2cc(S(=O)(=O)N3CC(C)CC(C)C3)ccc21 (stereo not given) | nt | nt | -4.8 | 5 | nt
CCCn1c(=O)c2ccccc2n2c(SCC(=O)c3ccc(CC)cc3)nnc12 | -2% | -6 | -0.9 | -8 | -11
Cc1ccc(-n2c(-c3ccccc3)n[nH]c2=S)cc1 | 8% | 3 | 0.7 | -7 | -14

Screens (PubChem)
